Source: PubChem (National Center for Advancing Translational Sciences (NCATS))
NS1 inh – blocks influenza NS1 protein function; S. cerevisiae slowed by influenza A NS1, growth recovery by OD600; Potency, µM (titrated, usually from 46.1 µM), for the others: at the highest dose activity, positive = more growth; 0.4% of 270,000 active; active means well fitted rising curve with a large enough effect; inconclusive means small, poorly fitted or top-dose-only effect; inactive means no such curve, though single readings can be large or run the other way; note: nearly all actives have a fitted effect of over 50% in size
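OD600 was taken as the measure of yeast growth restored by compound in an NS1-expressing S. cerevisiae strain. Cells had been washed out of glucose medium and diluted 1:100 into galactose -URA medium, pH 6.0.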
Cruzain Triton – blocks cruzain activity in presence of Triton detergent; Potency, µM, for inactives: max response, negative = inhibition, most hits filed as inhibitors; 0.43% of 200,000 active; P25779; purified cruzain, Z-FR-AMC fluorescence, 0.01% Triton;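 note: plate controls were neutral wells for no effect and buffer without enzyme for full effect; nearly all actives have a fitted effect of over 40% in size; top concentration of the series not given in the record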
Target sequence (P25779 123-467 limits assumed): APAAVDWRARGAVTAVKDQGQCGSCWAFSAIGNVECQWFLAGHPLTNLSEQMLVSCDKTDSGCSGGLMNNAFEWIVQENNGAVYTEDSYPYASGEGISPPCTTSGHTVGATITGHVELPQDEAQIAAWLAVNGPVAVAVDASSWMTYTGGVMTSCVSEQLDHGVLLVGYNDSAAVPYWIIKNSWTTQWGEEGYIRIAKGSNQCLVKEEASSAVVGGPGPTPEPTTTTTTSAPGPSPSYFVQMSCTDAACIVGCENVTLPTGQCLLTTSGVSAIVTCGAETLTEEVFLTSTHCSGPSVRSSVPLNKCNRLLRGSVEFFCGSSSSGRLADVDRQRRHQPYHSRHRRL
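Enzyme 1.5 nM, Z-FR-AMC 2 uM, NaOAc 100 mM pH 5.5, DTT 5 mM, Triton X-100 0.01%; 15 min RT compound preincubation; kinetic ex360/em450, 60 s delta.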
2A StopGo – FMDV 2A StopGo reporter, luciferase signal. Potency, µM (doses to about 57.9 µM), without a hit: at the top dose signal change, negative = less light. 1.2% of 410,000 active. human cells with a luciferase reporter of 2A StopGo recoding; control for the full effect not named in the record; active = well fitted falling curve with a large enough effect; inconclusive = small, poorly fitted or top-dose-only effect; inactive = no such curve, though single readings can be large or run the other way; tested in HEK293T cells; note: % is set by controls: 0 for no effect and ±100 for the full control effect; nearly all actives have a fitted effect of over 45% in size; luciferase light after 4 h
Cruzain inh noDet – inhibitors of Trypanosoma cruzi cruzain without detergent; purified cruzain, Z-FR-AMC fluorescence, no detergent; 2.3% of 200,000 active; AID 1476; P25779; Potency, µM, for the others: max response, negative = inhibition, hits mostly inhibitors;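 note: plate controls were enzyme without inhibitor for no effect and buffer without enzyme for full effect; nearly all actives have a fitted effect of over 40% in size; top concentration of the series not given in the record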
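Detergent-free condition (0.00005% Triton X-100) in acetate buffer pH 5.5 with DTT. 1.5 nM enzyme and compound were pre-mixed 15 min, then 2 uM Z-FR-AMC substrate added; reaction progress from fluorescence change between first and third reads (60 s).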
Lassa entry inh – Lassa virus entry inhibition; Lassa virus pseudotype entry inhibition, cell reporter; control for the full effect not named in the record; Potency, µM (titrated, usually from 37.9 µM), for inactives: at the highest dose activity change, negative = inhibition, hits mostly inhibitors; 1.2% of 300,000 active; active means well fitted inhibition curve with a large enough effect; inconclusive means small, poorly fitted or top-dose-only effect, or effect the other way; inactive means flat fitted curve, though single readings scatter; tested in HEK293 cells; note: % is set by controls: 0 for no effect and ±100 for the full control effect; nearly all actives have a fitted effect of over 50% in size; luciferase read-out
Marburg entry inh – inhibitors of Marburg virus binding or cell entry; Marburg virus pseudotyped entry inhibition, cell reporter; control for the full effect not named in the record; about a third of the inactives were read at about 46 µM; Potency, µM (titrated, usually from 37.8 µM), for inactives: at the top dose activity change, negative = inhibition, hits mostly inhibitors; 1.8% of 300,000 active; active = well fitted inhibition curve with a large enough effect; inconclusive = small, poorly fitted or top-dose-only effect, or effect the other way; inactive = flat fitted curve, though single readings scatter; tested in HEK293 cells; about a fifth of its hits are not listed in these tables; note: % is set by controls: 0 for no effect and ±100 for the full control effect; luciferase read-out
RE007 growth inh – less growth of the S. pombe RE007 Vpr strain. S. pombe RE007 Vpr strain, BacTiter-Glo ATP luminescence, 24 h; control for the full effect not named in the record. Potency, µM (doses to about 92.2 µM), for the others: top-dose activity change, negative = less growth. 0.21% of 360,000 active; active = well fitted falling curve with a large enough effect; inconclusive = small, poorly fitted or top-dose-only effect; inactive = no such curve, though single readings can be large or run the other way;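 note: % is set by controls: 0 for no effect and ±100 for the full control effect; nearly all actives have a fitted effect of over 50% in size; the assay follows cell death caused by Vpr and the record does not say whether a fall means rescue or toxicity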
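Fission yeast strain RE007, carrying one chromosomally integrated HIV-1 vpr copy, was seeded at OD 0.01 in PMG+AL medium with 23 nL pinned compound. After 24 h at 30 °C and 99% humidity, viability was read by BacTiter-Glo luminescence.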
SARS PLP yeast – inhibitors of SARS-CoV papain-like protease in yeast. S. cerevisiae expressing SARS-CoV PLpro, growth rescue; control for the full effect not named in the record. Potency, µM (titrated, usually from 32.9 µM), for the others: top-dose activity, positive = growth rescue. 0.19% of 330,000 active. AID 485353; active means well fitted rising curve with a large enough effect; inconclusive means small, poorly fitted or top-dose-only effect; inactive means no such curve, though single readings can be large or run the other way; note: 0% is about no effect; nearly all actives have a fitted effect of over 55% in size; growth read by luminescence after 48 h
* = called active by the depositor; ? = inconclusive; . = no result given; & = joins results of further samples; [ ] = another dose, or the depositor's remark. Unless noted, calls come from the whole dose curve; as a rule, active = well fitted curve in the direction sought with a large enough effect; inconclusive = small, poorly fitted or top-dose-only effect, or another doubt; inactive = no such curve, though single readings can be large; an effect the other way counts as inactive or inconclusive. Potency is the fitted concentration of half-maximal effect. Hits appear at their usual frequency; about 4.7% have a hit in one of these screens.

SMILES	NS1 inh	Cruzain Triton	2A StopGo	Cruzain inh noDet	Lassa entry inh	Marburg entry inh	RE007 growth inh	SARS PLP yeast
Cc1cc([N+](=O)[O-])c2ccccc2c1NS(=O)(=O)c1ccccc1	.	.	-7%	.	0%[46.1 µM]	3%[46.1 µM]	-11%	.
Cc1nn(-c2ccccc2)c(C)c1/C=N/NC(=O)c1cc(-c2ccc(Cl)s2)[nH]n1	8.9µM*	-1.3%	4µM*	?	10µM*	9.2µM*	15%	2%
CCCCCOc1ccc(/C=C/C(=O)NCCc2nc3ccccc3[nH]2)cc1OC	26%	-21%	?	14%	-1%	?	5%	7%
Cc1cccc(N(Cc2cc(=O)[nH]c3ccccc23)C(=O)C(C)C)c1	-6%	.	-2%	.	.	.	2%	-1%
O=C(/C=C\c1ccco1)Nc1nc(-c2ccc3ccccc3c2)cs1	14%	-2.8%	?	-80%	-4%	?	24%	-2%
CCn1c(-c2cccc(Cl)c2)n[nH]c1=S	1%	-4.2%	-16%	4%	6%	4%	20%	-1%
CC(=O)Oc1ccc2c(c1)c(C(C)=O)c(C)n2C	-5%	0.6%	0%	-4%	20%	-4%	0%	-3%
N#CCC(CNc1ncc(C(F)(F)F)cc1Cl)OC(=O)c1ccc(Cl)cc1 (stereo unspecified)	18%	-8.2%	.	8%	-4%	0%	-10%	-22%
COc1ccc(-n2nnc(-c3nc(-c4cccs4)no3)c2N)cc1OC	.	-0.5%	4%	2%	-12%[46.1 µM]	.	.	.
Cc1ccc(OCC(O)CN2C(=O)NC(C)(C)C2=O)cc1 (stereo unspecified)	2%	0.8%	-13%	13%	12%	17%&17%	0%	-1%
COc1ccc(CNC(=O)C/C(C)=N/NC(=O)c2cnccn2)cc1	-1%	.	15%	.	?	5%[46.1 µM]	-20%	0%
NNC(=O)c1cc(Cl)ccc1Cl	12%	-3.1%	-11%	-10%	?	16%	0%	9%
CC(=O)Nc1ccc(NC(=O)CSc2ccc(-c3ccc(-n4ccnc4)cc3)nn2)cc1	.	.	-5%	.	1%	6%[46.1 µM]	-11%	-2%
O=C(NCC(c1ccco1)N1CCCCC1)c1cccs1 (stereo unspecified)	.	.	6%	.	16%	19%	-17%	6%
CCN(CC)C(=O)c1sc(NC(=O)C2c3ccccc3Oc3ccccc32)c(C(=O)OC(C)C)c1C	.	-0.5%	-2%	-7%	16%[46.1 µM]	6%[46.1 µM]	.	.
CCOc1ccc(-c2nc(CSCC(=O)N3CCN(c4ccc(F)cc4)CC3)c(C)o2)cc1	.	-1.5%	?	0%	-1%[46.1 µM]	.	.	.
O=C(CSc1cccc[n+]1[O-])c1ccccc1Br	.	.	19%	.	6%	-13%[14.2 µM]	22µM*	-11%
O=C(NCc1ccc(N2CCCC2=O)cc1)c1cnccn1	-1%	3.8%	4%	-9%	15%	2%	37%	-1%
CSc1nc(Oc2ccc3ccccc3c2)c2sccc2n1	3%	-0.3%	-22%	-4%	-5%	?	-8%	-6%
c1ccc(Cn2c(NCc3ccccn3)nc3ccccc32)cc1	.	.	-15%	.	-18%[46.1 µM]	?	-7%	0%
Cc1cccc(N2CCN(C(=O)c3cc4c(=O)n(C)c5ccccc5c4n3C)CC2)c1C	-29%	-2.7%	32µM*	-4%	.	.	3%	0%
Cc1cc(=O)oc2c(CN3CCCCC3)c(O)c(Cl)cc12	19%	?	-2%	?	-1%	-5%	12%	?
O=C(Nc1cccc(C(F)(F)F)c1)c1ccc(N2CCNCC2)c([N+](=O)[O-])c1	3%	.	-2%	.	2%	?	5%	-1%
CC1CCN(C(=O)c2ccc(NC3=C(Cl)C(=O)N(Cc4ccccc4)C3=O)cc2)CC1	.	.	?	.	?	?	-6%	-2%
CC(C)[C@H]1CN=C2N(CCNC(=O)CCC3CCCCC3)[C@H](Cc3ccc(O)cc3)CN21	-1%	.	-28%	.	.	.	-11%	-3%
Next section.
SMILES	NS1 inh	Cruzain Triton	2A StopGo	Cruzain inh noDet	Lassa entry inh	Marburg entry inh	RE007 growth inh	SARS PLP yeast
COc1ccc(-c2cc3c(=O)n(CC(=O)Nc4ccc(C(C)=O)cc4)ncn3n2)cc1	-5%	.	40%[activator]	.	.	.	0%	-3%
O=C(COC(=O)c1ccc2c(c1Cl)C(=O)c1ccccc1C2=O)NC1CC1	-6%	-9.2%	-1%	-9%	-5%	-33%	-1%	-2%
COc1ccc(NC(=O)C2CCN(S(=O)(=O)c3ccc(Br)s3)CC2)cc1OC	-5%	-1.6%	?	9%	6%&-8%	2%&-4%	4%	?
COc1ccc(C(=O)CSc2nnc(COc3ccc(C#N)cc3)n2-c2ccccc2)cc1	5%	-0.8%	-10%	-10%	10%	?	24%	4%
CCOC(=O)c1c(C)[nH]c(C)c1C(=O)CSc1nc2ccccc2n1CCC#N	-9%	-7.5%	5%	9%	0%	?	3%	-6%
Cc1ccccc1OCC(=O)Nc1ccc2oc(=O)ccc2c1	.	.	0%	.	?	-18%	5%	-2%
CC[n+]1c(S(=O)(=O)[O-])ccc2ccc(C)cc21	-10%	-2.0%	0%	-3%	21%	19%	-6%	4%
COCCCNC(=O)c1ccccc1NS(C)(=O)=O	7%	-5.9%	6%	0%	10%	?	-3%	-8%
C/C(=N\OC(=O)Nc1ccccc1)c1cnn(-c2cc(C(F)(F)F)cc(C)n2)c1C	0%	.	4%	.	3%[46.1 µM]	14%[46.1 µM]	-5%	-3%
CCOC(=O)c1ccc(NC(=O)CSc2nc(NC(=O)c3ccccc3)c3c(C)c(C)oc3n2)cc1	12%	-4.0%	-13%	-8%	?	?	-19%	-5%
Cc1cc(Nc2ccccc2C(=O)O)n(-c2ccc([N+](=O)[O-])cc2)n1	0%	.	-3%	.	.	.	-5%	0%
CC(=O)Nc1ccc2oc(-c3ccccc3Br)nc2c1	-147%	-7.6%	38%[activator]	13%	?	?	11%	-34%
COc1ccccc1Nc1nnc(SCc2cc(=O)n3ccsc3n2)s1	.	.	7%	.	9%	?	3%	0%
Cc1cccc(C)c1N(CC(=O)N(C)Cc1ccccc1)S(C)(=O)=O	-3%	.	-6%	.	.	.	1%	-1%
Cc1ccccc1N1CCN(CC(=O)Nc2nc(C)c(C(=O)N(C)C)s2)CC1	7%	.	-27%	.	0%	16%	-4%	6%
O=C(Nc1ccc([N+](=O)[O-])cn1)C1CC1	8%	-3.8%	3%	-13%	?	?	37%	-15%
Nn1c(SCC(=O)NCC2CCCO2)nnc1-c1ccc(OC(F)F)cc1 (stereo unspecified)	.	.	-12%	.	5%	14%[46.1 µM]	25%	-5%
Cc1ccc(NC(=O)C2CCN(S(=O)(=O)c3c(C)[nH]c(=O)[nH]c3=O)CC2)cc1	-2%	-0.9%	.	-22%	-2%	0%	8%	2%
CCCN(CCC)C(=O)c1ccc2c(c1)S(=O)(=O)c1ccccc1C2=O	-15%	.	13%	.	-1%[46.1 µM]	-10%[46.1 µM]	0%	-2%
Cc1cc(C)n(S(=O)(=O)c2ccc(Cl)cc2)n1	0%	.	3%	.	-5%	-23%	4%	2%
COC(=O)c1cc(Br)c(=O)n(CCN(C(C)C)C(C)C)c1	-3%	2.5%	-8%	1%	9%	8%	14%	4%
CCOC(=O)c1c(C2CC2)csc1NC(=O)COC(=O)c1cc(OC)c(OC)cc1[N+](=O)[O-]	-7%	-3.3%	0%	-2%	0%	-29%	28%	12%
O=C(COC(=O)CCc1nc2ccccc2s1)Nc1ccc(S(=O)(=O)N2CCOCC2)cc1	-14%	-1.0%	21%	?	-1%	-1%&-3%	-4%	-3%
CCOc1cc(/C=N/NC(=O)c2ccc(=O)n(C)c2)ccc1O	-4%	.	9%	.	.	5%[46.1 µM]	7%	-1%
O=S(=O)(N/N=C\c1ccc(-c2ccccc2Cl)o1)c1ccccc1	13%	-19%	54%[activator]	-12%	-1%	1%	-18%	-85%
(continued)
SMILES	NS1 inh	Cruzain Triton	2A StopGo	Cruzain inh noDet	Lassa entry inh	Marburg entry inh	RE007 growth inh	SARS PLP yeast
C#Cc1ccc([C@H]2C=C(C(=O)NC3CC3)O[C@@H](OCC)[C@@H]2CCCO)cc1	1%	.	-9%	.	.	.	8%	0%
Cc1nn(-c2ccccc2)c(OC(=O)c2ccc(Cl)cc2)c1S(=O)(=O)c1ccccc1	.	0.7%	-6%	18%	6%[46.1 µM]	-3%[46.1 µM]	.	.
COCCOc1cc(NC(=O)c2ccccc2)c(Cl)cc1Cl	.	.	-12%	.	2%	-27%[46.1 µM]	-22%	-3%
O=C1c2cccnc2C(=O)N1Cc1ccc(S(=O)(=O)NCc2ccco2)s1	-5%	.	-4%	.	5%[46.1 µM]	3%[46.1 µM]	-7%	0%
Cc1ccc(NC(=O)CSCc2cnn(-c3ccccc3)c2-n2cccc2)c(C)c1	.	-7.6%	?	-14%	.	-19%[46.1 µM]	.	.
COCCCNc1nc2ccccc2nc1NS(=O)(=O)c1ccccc1	2%	.	8%	.	2%	2%[46.1 µM]	?	-1%
C=CCNC(=O)CC12CC3CC(C1)CC(CC(=O)NCC=C)(C3)C2	-4%	.	4%	.	.	3%[46.1 µM]	9%	20%
CCc1nnc(NC(=O)CC(CN(C)S(=O)(=O)c2ccccc2)c2ccccc2)s1 (stereo unspecified)	-6%	-2.3%	-4%	2%	.	.	-9%	-3%
COC(=O)CCc1c(C)c(C(=O)c2cc(OC)c(OC)c(OC)c2)c2ccccn12	9%	.	-19%	.	.	.	9%	-4%
COC(=O)c1c(NC(=O)C2c3ccccc3Oc3ccccc32)sc2c1CCC(C)C2 (stereo unspecified)	.	-3.1%	-19%	-23%	1%[46.1 µM]	8%[46.1 µM]	.	.
COC(=O)c1ccc(OC(=O)CCN2C(=O)C3C4c5ccccc5C(c5ccccc54)C3C2=O)cc1 (stereo unspecified)	1%	-1.4%	2%	-13%	?	?	.	-13%
COc1ccc(C2SC[C@@H](C(=O)O)N2C(C)=O)cc1 (stereo partly specified)	-12%	0.6%	?	12%	2%	-4%	8%	-3%
O=S(=O)(Nc1cccnc1)c1cccnc1	.	.	-6%	.	4%[46.1 µM]	5%[46.1 µM]	1%	.
